# Source: PubChem (several laboratories)
# Arbovirus inh: antivirals against arbovirus infection, primary screen, cell-based, full library, 10K replicate subset. arbovirus infection cell-based antiviral screen. inhibition, % at 10 µM. 200,000 tested, 0.37% active. AID 1251, 2008;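 active = inhibition from about 30%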;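 note: bluetongue infection of BSR cells; cell survival read as ATP light after 72 h; 0% = infected wells without compound and 100% = uninfected wells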
# Mtb bLac sens: beta-lactam sensitization of Mtb H37Rv, H37Rv. AID 434955, 2010. 330,000 tested, 0.27% active. inhibition, % at 25 µM. M. tuberculosis H37Rv growth with meropenem, percent inhibition; hits of this screen are not shown here;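 active = about 74% or more and at least 40 points above the plate without the antibiotic, then above 30% in a dose series; inconclusive = first-round hits that could not be retested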;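 note: growth measured after seven days incubation then overnight dye step; 0% = bacteria only wells and 100% = bacteria with antibiotic; twin plates without the antibiotic show which effects depend on it; some results filed as inactive read as strong as hits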
# RecA intein inh: Mtb RecA intein splicing inhibitors, primary screen, biochemical, fluorescence, HTS | 290,000 tested, 0.75% active | inhibition, %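 (about 9 µM by stock and volumes)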 | cell-free RecA intein splicing | AID 2221, 2009 | Protein RecA (Mycobacterium tuberculosis (strain ATCC 25618 / H37Rv)), P9WHJ3; in the data active = inhibition above about 30%; inconclusive = no clear call, values can overlap the other calls;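 note: 0% = vehicle wells and 100% = reference inhibitor control wells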
# Target sequence (P9WHJ3 whole entry, looked up): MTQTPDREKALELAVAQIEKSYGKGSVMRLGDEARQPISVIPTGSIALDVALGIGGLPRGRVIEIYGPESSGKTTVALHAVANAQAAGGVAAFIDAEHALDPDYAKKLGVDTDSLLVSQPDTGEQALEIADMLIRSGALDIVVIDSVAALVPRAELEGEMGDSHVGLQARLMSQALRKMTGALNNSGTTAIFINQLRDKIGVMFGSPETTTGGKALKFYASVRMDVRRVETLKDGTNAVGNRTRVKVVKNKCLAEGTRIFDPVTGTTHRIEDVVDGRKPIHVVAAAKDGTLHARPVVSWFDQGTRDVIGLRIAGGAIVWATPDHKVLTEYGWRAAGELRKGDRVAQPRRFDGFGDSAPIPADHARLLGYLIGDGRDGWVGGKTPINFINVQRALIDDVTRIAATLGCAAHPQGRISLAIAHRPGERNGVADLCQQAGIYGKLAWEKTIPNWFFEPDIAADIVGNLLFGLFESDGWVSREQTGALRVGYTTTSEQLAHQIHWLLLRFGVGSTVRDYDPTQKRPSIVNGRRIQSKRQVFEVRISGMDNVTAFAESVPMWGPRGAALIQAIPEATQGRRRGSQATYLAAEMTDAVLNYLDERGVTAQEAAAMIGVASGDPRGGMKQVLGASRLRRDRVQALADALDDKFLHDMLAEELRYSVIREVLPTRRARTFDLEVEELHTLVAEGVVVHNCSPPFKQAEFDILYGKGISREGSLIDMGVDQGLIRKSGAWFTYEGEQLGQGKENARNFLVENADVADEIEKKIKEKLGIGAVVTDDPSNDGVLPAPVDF
# Mtb growth: M. tuberculosis H37Rv growth inhibitors, H37Rv strain (AID 1626) | one-dose inhibition, % at 10 µM; IC50 in µM for titrated hits | M. tuberculosis H37Rv growth inhibition; higher % means a stronger effect | 220,000 tested, 0.95% active;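 active = confirmed in a dose series; inconclusive = inhibition above 80% but not taken into the dose series; inactive = below 80% or under 30% at every dose of the series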;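 note: bacteria incubated seven days before Alamar blue readout; 0% = bacteria only wells and 100% = bacteria with antibiotic wells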
# YopH inh: YopH tyrosine phosphatase inhibitors, primary screen, biochemical, fluorescence Ex485/Em525; inhibition, %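 (about 10 µM by stock and volumes)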; AID 898, 2007; YopH tyrosine phosphatase [Yersinia enterocolitica]; 140,000 tested, 0.16% active;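 active = inhibition of 50% or more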;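 note: controls were vehicle for no effect and minimum signal wells for full effect; inactives centre near -20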
# Arbovirus inh repeat: also measured in Arbovirus inh; calls as there; inhibition, %; measured here: 10K subset replicate screen; many hits read low in the repeat;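 first of two repeat runs on a subset; 0% = infected and 100% = uninfected wells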
# * hit, by the source's call; u = inconclusive; x = not tested or not shown. A portion of the library; count on the stated rates, not on these rows.
SMILES,Arbovirus inh,Mtb bLac sens,RecA intein inh,Mtb growth,YopH inh,others
c1ccc2c(c1)nnn2Cc1nnc2sc(-c3ccncc3)nn12,-0.8,-2.9,1.4,2.5%,-43.3,
CC(=O)Nc1ccc(NC(=O)Nc2cccc3ccccc23)cc1,x,-3.8,2.0,x,x,
CNC(=O)NC(=O)CSc1nnc(-c2ccco2)n1-c1ccccc1,x,0.7,-2.3,x,x,
CC1CCCCN1S(=O)(=O)c1ccc(NC(=O)CSc2nnnn2C)cc1 (stereo unspecified),2.7,4.7,-6.8,0.5%,-31.6,
O=C(N/C(=C\c1ccc(Cl)cc1)C(=O)N1CCOCC1)c1ccco1,x,-2.8,1.4,x,x,
Fc1ccc(-c2cc(C(F)(F)C(F)F)[nH]n2)cc1,x,4.9,2.6,11.1%,x,
O=C(CNC(=O)[C@@H]1Cc2ccccc2CN1)Nc1ccc2c(c1)OCCO2,x,2.2,0.5,x,x,
CCOC(=O)CN1C(=O)N[C@@H](c2cccs2)C(C(=O)OC)=C1C,x,-15.5,1.2,-7.0%,x,
CCN(CC)S(=O)(=O)c1nnc(NC(=O)c2ccco2)s1,x,30.5,-0.8,x,x,
CCC(C(=O)Nc1cccnc1)n1c(=O)[nH]c2ccccc2c1=O (stereo unspecified),x,-9.3,-0.2,x,x,
OCCNc1nc(N2CCOCC2)nc(N2CCOCC2)n1,2.7,-4.2,-1.4,-6.8%,x,
Cc1ccc(NS(=O)(=O)Cc2ccccc2)cc1Cl,x,-6.3,1.5,x,x,
CCc1nc2ccc(Cc3ccc4nc(CC)[nH]c4c3)cc2[nH]1,x,5.0,-2.6,x,x,
COC(=O)c1ccc(C)c(NC(=O)CN(c2ccc3c(c2)OCO3)S(C)(=O)=O)c1,4.9,-4.8,-5.2,-2.7%,29.9,
Cc1cccc(C)c1NC(=S)NCCc1ccc(O)c(O)c1,-33.0,0.7,-2.9,-0.1%,x,
O=C(O)c1ccc(S(=O)(=O)N2CCC(NC(=O)C3CCCCC3)CC2)cc1,x,-2.6,-6.1,x,x,
CCCCOc1ccc(Nc2nc(C)cc(C)c2C#N)cc1,0.7,-0.8,-3.6,-1.6%,-16.7,
O=C(NCCN1CCNCC1)c1ccccn1,6.0,6.6,0.3,-8.8%,-44.0,
Cc1ccc(C)c(N2C(=O)CC(Cc3ccc(Br)cc3)C2=O)c1 (stereo unspecified),x,4.2,-7.3,x,x,
CCOc1ccccc1CN1CCNC(=O)C1CC(=O)NCCc1ccccn1 (stereo unspecified),x,u,3.0,x,x,
CCOc1cc(S(=O)(=O)n2ccnc2)ccc1Br,-1.2,-3.6,2.6,0.0%,x,
CCOc1ccc(/C=N/NC(=O)c2ccc(CSc3nc4ccccc4[nH]3)cc2)cc1,-28.2,9.1,1.9,-36.8%,-0.9,
O=C(OCC(=O)N1CCC(Cc2ccccc2)CC1)c1cc(Cl)ccc1O,x,72.6,3.5,x,x,
Cn1cnnc1SCC(=O)Nc1cccc(C(=O)O)c1,10.8,-0.8,1.9,-11.5%,16.9,
COc1cccc(NC(=O)N2CCC(NC(=O)C3CCCCC3)CC2)c1,x,-0.2,0.0,x,x,
COc1ccc(OC)c(C2C(C(=O)O)c3ccccc3C(=O)N2C)c1 (stereo unspecified),-1.4,0.8,-2.8,-6.8%,-53.0,
CC1CCCC(C)N1S(=O)(=O)c1ccc(S(=O)(=O)N2CCOCC2)cc1 (stereo unspecified),x,0.1,1.3,5.9%,x,
CNC(=O)c1ccsc1NC(=O)CS(=O)(=O)c1ccc(Cl)cc1,x,4.9,-4.9,x,x,
O=C(CSc1nc2cc([N+](=O)[O-])ccc2n1-c1ccc(F)cc1)NC1CCS(=O)(=O)C1 (stereo unspecified),-19.1,0.9,20.0,2.4%,-20.6,
Cc1cc(C(=O)COC(=O)c2ccc[nH]c2=O)c(C)n1C,-5.4,3.9,-2.4,-3.2%,-23.8,
Cc1nc2ccccn2c1P(=O)(N1CCCCC1)N1CCCCC1,0.4,16.0,0.5,-9.1%,24.4,
O=C(c1cc(-c2ccc(F)cc2)on1)N1CCN(c2ccc(F)cc2)CC1,x,3.6,0.5,x,x,
COc1cccc(NC(=O)COC(=O)c2c(F)cccc2Cl)c1,9.0,-4.2,x,3.8%,x,
COc1cccc(OC)c1OCCCCN1CCC(Cc2ccccc2)CC1,-0.9,3.6,0.2,-2.2%,x,
c1coc(-c2ccnc3nc(-n4cccc4)nn23)c1,-4.7,-4.4,-1.7,-6.6%,x,
CCCCNC(=O)CN(c1cccc(Br)c1)S(C)(=O)=O,2.0,-1.4,6.3,-7.2%,-17.7,
O=C(O)C1Cc2ccccc2-c2ccccc2C1,x,6.3,-4.6,x,x,
Cc1nc2sccn2c(=O)c1S(=O)(=O)NCc1ccccc1Cl,x,1.2,-2.2,x,x,
Cn1nc(N)c2c(-c3ccccc3)c(C#N)c(N)nc21,-3.6,-3.6,-1.1,-5.2%,-13.3,
C#CCOCCOCCOCCNc1nc(N2CCN(C(=O)[C@H](Cc3ccc(O)cc3)n3cc([C@@H](N)CC(C)C)nn3)CC2)nc(N2CCN(C(=O)[C@H](Cc3ccc(O)cc3)n3cc([C@@H](N)CC(C)C)nn3)CC2)n1,-3.6,25.5,1.6,x,x,
CN(C)c1ccc(NC(=O)CSc2nnc(-c3ccco3)c(-c3ccco3)n2)cc1,x,-2.4,3.3,x,x,
O=C(N1CCN(c2ccccc2)CC1)C1(c2cccs2)CCOCC1,-1.7,3.7,-1.3,5.0%,-12.9,
O=C(CCNS(=O)(=O)c1ccc(OC(F)(F)F)cc1)N1CCN(C/C=C/c2ccccc2)CC1,x,96.0,1.6,x,x,
O=C(O)CCCCCNS(=O)(=O)c1ccc2c3c(cccc13)C(=O)N2,x,-0.6,-188.4,x,x,
CN(C)CCCN(C(=O)c1ccc(Br)s1)c1nc2cc3c(cc2s1)OCO3,-9.4,-6.0,0.3,4.8%,x,
Cc1cc(Cl)ccc1OCC(=O)NCc1ccncc1,1.6,4.7,-1.0,-3.7%,-10.4,
O=C(c1ccc(F)cc1)N1CCN(c2ccc(N3CCOCC3)nn2)CC1,x,-6.6,-4.1,-0.6%,x,
CCOCc1nnc(NC(=O)c2cc(OC)c(OC)c(OC)c2)s1,5.3,3.2,-0.2,-6.5%,x,
O=C(NCC(c1ccco1)N1CCCCC1)c1ccc(NS(=O)(=O)c2ccc(F)cc2)cc1 (stereo unspecified),x,-19.8,0.6,x,x,
CCCC(=O)Nc1ccc(C(=O)Nc2nnc(COCC)s2)cc1,-1.9,-6.9,1.7,-9.2%,-21.5,
O=C(NCc1ccco1)C(c1cccs1)N(C(=O)Cc1cccs1)c1ccccc1 (stereo unspecified),-2.9,-7.6,x,-6.7%,2.2,
CC(C)c1ccc(NC(=O)NC(C)c2ccc3c(c2)OCO3)cc1 (stereo unspecified),x,-6.5,2.9,x,x,
O=C(NCC(c1ccco1)N1CCN(c2ccccc2F)CC1)c1ccco1 (stereo unspecified),x,-13.2,5.4,x,x,
Cc1ccnc(NS(=O)(=O)c2ccc(NC(=O)c3c(-c4ccccc4Cl)noc3C)cc2)n1,5.8,4.5,0.6,-3.1%,-13.1,
CC(C)c1nc(SCC(=O)Nc2ccc(N3CCOCC3)cc2)c2ccccc2n1,-3.6,-0.6,1.5,-7.0%,14.7,
CC(=O)Nc1nc2ccccc2n1CCOc1ccccc1,-14.6,96.8,0.2,u,0.0,
COc1ccc(NC(=O)N2CCCC2C(=O)NC23CC4CC(CC(C4)C2)C3)cc1 (stereo unspecified),x,4.2,0.7,x,x,
c1ccc(-c2cc(-c3ccccc3)[n+](-c3ccccc3)c(-c3ccccc3)c2)cc1,x,88.4,-0.1,u,x,
NCc1nc(-c2ccc(Cl)cc2)no1,6.9,3.2,-1.6,-6.5%,x,
CCN(CC)CCCNC(=O)C1c2ccccc2C(=O)N1Cc1ccc(C)cc1 (stereo unspecified),3.0,-4.6,-0.2,-14.2%,-40.9,

# By substructure, those above containing a cyano group
SMILES,Arbovirus inh,Mtb bLac sens,RecA intein inh,Mtb growth,YopH inh,others
CCCCOc1ccc(Nc2nc(C)cc(C)c2C#N)cc1,0.7,-0.8,-3.6,-1.6%,-16.7,
Cn1nc(N)c2c(-c3ccccc3)c(C#N)c(N)nc21,-3.6,-3.6,-1.1,-5.2%,-13.3,

# Further structures:
SMILES,Arbovirus inh,Mtb bLac sens,RecA intein inh,Mtb growth,YopH inh,others
CC(=O)c1c(O)cc(C(C)C)n(-c2ccccc2)c1=O,8.1,6.7,1.7,0.3%,-31.6,
Cc1cccc(-c2cc3nc4c(c(N5CCC6(CC5)OCCO6)n3n2)CCCC4)c1,x,-1.8,x,x,-28.1,
CCOC(=O)CSc1nc(C)[nH]c1[N+](=O)[O-],2.7,-4.5,-0.3,0.1%,x,
N#CC1=C(N2CCOCC2)/C(=C\c2ccccc2)CC1,-0.3,-2.7,4.0,11.5%,-27.7,
CN(C)CCCN1C(=O)c2cc3ccccc3cc2C1=O,x,-5.1,-1.7,x,x,
Nc1nn(-c2ccccc2)nc1C(=O)OCc1ccccc1F,-2.2,73.0,-1.7,x,x,
CC(=O)c1ccccc1N(C(=O)c1ccco1)C(C(=O)NC1CCCC1)c1ccc(C)cc1 (stereo unspecified),x,-1.1,2.2,x,x,
S=c1[nH]nc(CSc2nc3ccccc3s2)o1,4.0,-9.3,-0.8,-0.9%,-37.8,Arbovirus inh repeat=-0.4
CCCNC(=O)COc1coc(CN2CCN(c3ccccc3OC)CC2)cc1=O,x,-0.7,-4.0,x,x,
COc1ccc(CSc2nc(N3CCOCC3)c3c(c2C#N)CC(C)(C)OC3)cc1,1.5,1.3,3.6,3.1%,-3.4,
O=C(C(Cc1ccccc1)n1cccc1)N1CCN(c2ncccn2)CC1 (stereo unspecified),-3.3,-5.0,0.4,-0.5%,3.1,

# Structures listed so far containing an aryl thioether with sulfur outside any ring, in the order listed:
SMILES,Arbovirus inh,Mtb bLac sens,RecA intein inh,Mtb growth,YopH inh,others
CNC(=O)NC(=O)CSc1nnc(-c2ccco2)n1-c1ccccc1,x,0.7,-2.3,x,x,
CC1CCCCN1S(=O)(=O)c1ccc(NC(=O)CSc2nnnn2C)cc1 (stereo unspecified),2.7,4.7,-6.8,0.5%,-31.6,
CCOc1ccc(/C=N/NC(=O)c2ccc(CSc3nc4ccccc4[nH]3)cc2)cc1,-28.2,9.1,1.9,-36.8%,-0.9,
Cn1cnnc1SCC(=O)Nc1cccc(C(=O)O)c1,10.8,-0.8,1.9,-11.5%,16.9,
O=C(CSc1nc2cc([N+](=O)[O-])ccc2n1-c1ccc(F)cc1)NC1CCS(=O)(=O)C1 (stereo unspecified),-19.1,0.9,20.0,2.4%,-20.6,
CN(C)c1ccc(NC(=O)CSc2nnc(-c3ccco3)c(-c3ccco3)n2)cc1,x,-2.4,3.3,x,x,
CC(C)c1nc(SCC(=O)Nc2ccc(N3CCOCC3)cc2)c2ccccc2n1,-3.6,-0.6,1.5,-7.0%,14.7,
CCOC(=O)CSc1nc(C)[nH]c1[N+](=O)[O-],2.7,-4.5,-0.3,0.1%,x,
S=c1[nH]nc(CSc2nc3ccccc3s2)o1,4.0,-9.3,-0.8,-0.9%,-37.8,Arbovirus inh repeat=-0.4
COc1ccc(CSc2nc(N3CCOCC3)c3c(c2C#N)CC(C)(C)OC3)cc1,1.5,1.3,3.6,3.1%,-3.4,
